StopGo reporter = High Throughput Screening for Foot and Mouth Disease Virus Antivirals. human cells with a luciferase reporter of 2A StopGo recoding; control for the full effect not named in the record. Potency, µM (top dose mostly 57.9 µM), for the others: top-dose signal change, negative = less light. actives 1.2% (n = 410,000). AID 1159524, 2015; active = well fitted falling curve with a large enough effect; inconclusive = small, poorly fitted or top-dose-only effect; inactive = no such curve, though single readings can be large or run the other way; tested in HEK293T cells; further: on the % scale 0 is the no-effect control and ±100 the full control effect; nearly all actives have a fitted effect of over 45% in size; luciferase light after 4 h
RE007 growth inh = qHTS Assay for Inhibitors of the HIV-1 protein Vpr; Potency, µM (doses to about 92.2 µM), for inactives: top-dose activity change, negative = less growth; S. pombe RE007 Vpr strain, BacTiter-Glo ATP luminescence, 24 h; control for the full effect not named in the record; actives 0.21% (n = 360,000); AID 651644, 2012; active = well fitted falling curve with a large enough effect; inconclusive = small, poorly fitted or top-dose-only effect; inactive = no such curve, though single readings can be large or run the other way;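 further: on the % scale 0 is the no-effect control and ±100 the full control effect; nearly all actives have a fitted effect of over 50% in size; the assay follows cell death caused by Vpr and the record does not say whether a fall means rescue or toxicity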
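Fission yeast strain RE007, carrying one chromosomally integrated HIV-1 vpr copy, was seeded at OD 0.01 in PMG+AL medium with 23 nL pinned compound. After 24 h at 30 °C and 99% humidity, viability was read by BacTiter-Glo luminescence.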
SARS PLP yeast = qHTS of Yeast-based Assay for SARS-CoV PLP. S. cerevisiae expressing SARS-CoV PLpro, growth rescue; control for the full effect not named in the record. Potency, µM (top dose mostly 32.9 µM), for the others: at the highest dose activity, positive = growth rescue. actives 0.19% (n = 330,000). AID 485353, 2010; active means well fitted rising curve with a large enough effect; inconclusive means small, poorly fitted or top-dose-only effect; inactive means no such curve, though single readings can be large or run the other way; further: 0% is about no effect; nearly all actives have a fitted effect of over 55% in size; growth read by luminescence after 48 h
NS1 function inh = qHTS Assay for Inhibitors of Influenza NS1 Protein Function | S. cerevisiae slowed by influenza A NS1, growth recovery by OD600 | Potency, µM (highest dose often 46.1 µM), inactives show at the top dose activity, positive = more growth | actives 0.4% (n = 270,000) | AID 2326, 2010; active means well fitted rising curve with a large enough effect; inconclusive means small, poorly fitted or top-dose-only effect; inactive means no such curve, though single readings can be large or run the other way; further: nearly all actives have a fitted effect of over 50% in size
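Recovery from NS1-induced slow growth read by OD600 in budding yeast switched to galactose assay medium (pH 6.0, -URA) at 1:100 dilution. Compound 23 nl per well; the matching strain lacking NS1 serves as control.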
LASV entry inh = qHTS for Inhibitors of binding or entry into cells for Lassa Virus | AID 540256, 2011 | Lassa virus pseudotype entry inhibition, cell reporter; control for the full effect not named in the record | Potency, µM (highest dose often 37.9 µM), inactives show at the highest dose activity change, negative = inhibition, most hits filed as inhibitors | actives 1.2% (n = 300,000); active means well fitted inhibition curve with a large enough effect; inconclusive means small, poorly fitted or top-dose-only effect, or effect the other way; inactive means flat fitted curve, though single readings scatter; tested in HEK293 cells; further: on the % scale 0 is the no-effect control and ±100 the full control effect; nearly all actives have a fitted effect of over 50% in size; luciferase read-out
Cruzain inh noDet = qHTS Assay for Promiscuous and Specific Inhibitors of Cruzain (without detergent); purified cruzain, Z-FR-AMC fluorescence, no detergent; actives 2.3% (n = 200,000); Potency, µM, without a hit: max response, negative = inhibition, hits mostly inhibitors; AID 1476, 2009;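 further: plate controls were enzyme without inhibitor for no effect and buffer without enzyme for full effect; nearly all actives have a fitted effect of over 40% in size; top concentration of the series not given in the record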
Target sequence (P25779 123-467 limits assumed): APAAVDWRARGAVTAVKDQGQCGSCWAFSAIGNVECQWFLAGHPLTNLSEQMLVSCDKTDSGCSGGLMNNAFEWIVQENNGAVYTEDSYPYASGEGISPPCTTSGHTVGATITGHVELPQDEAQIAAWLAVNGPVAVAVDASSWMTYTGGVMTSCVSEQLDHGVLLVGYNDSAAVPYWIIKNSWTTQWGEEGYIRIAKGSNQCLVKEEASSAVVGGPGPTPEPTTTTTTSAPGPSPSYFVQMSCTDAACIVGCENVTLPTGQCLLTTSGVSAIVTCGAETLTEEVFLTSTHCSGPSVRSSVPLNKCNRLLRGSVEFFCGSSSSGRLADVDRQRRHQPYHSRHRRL
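Purified cruzain at 1.5 nM, pre-incubated 15 min with compound at room temperature in 100 mM sodium acetate pH 5.5, 5 mM DTT, 0.00005% Triton X-100. Reaction started with 2 uM Z-FR-AMC; AMC fluorescence increase over 60 s gives rate.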
Marburg entry inh = qHTS for inhibitors of binding or entry into cells for Marburg Virus; actives 1.8% (n = 300,000); Marburg virus pseudotyped entry inhibition, cell reporter; control for the full effect not named in the record; about a third of the inactives were read at about 46 µM; Potency, µM (highest dose often 37.8 µM), for inactives: at the top dose activity change, negative = inhibition, hits mostly inhibitors; active = well fitted inhibition curve with a large enough effect; inconclusive = small, poorly fitted or top-dose-only effect, or effect the other way; inactive = flat fitted curve, though single readings scatter; tested in HEK293 cells; about a fifth of its hits are not listed in these tables; further: on the % scale 0 is the no-effect control and ±100 the full control effect; luciferase read-out
Cruzain inh Det = qHTS Assay for Promiscuous and Specific Inhibitors of Cruzain (with detergent). Cruzipain (Trypanosoma cruzi), P25779. purified cruzain, Z-FR-AMC fluorescence, 0.01% Triton. Potency, µM, without a hit: max response, negative = inhibition, most hits filed as inhibitors. actives 0.43% (n = 200,000);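 further: plate controls were neutral wells for no effect and buffer without enzyme for full effect; nearly all actives have a fitted effect of over 40% in size; top concentration of the series not given in the record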
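Cruzain (1.5 nM) preincubated 15 min at RT with compound in 100 mM sodium acetate pH 5.5, 5 mM DTT, 0.01% Triton X-100. Reaction started with 2 uM Z-FR-AMC; AMC fluorescence (ex 360/em 450 nm) change over 60 s gave rate.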
* = called active by the depositor; ? = inconclusive; nt = not tested or not shown; & = joins results of further samples; [ ] = another dose, or the depositor's remark. Unless noted, the call rests on the fitted dose curve; in most records, active means well fitted curve in the direction sought with a large enough effect; inconclusive means small, poorly fitted or top-dose-only effect, or another doubt; inactive means no such curve, though single readings can be large; an effect the other way counts as inactive or inconclusive. Potency means the concentration at half of the fitted maximal effect.

SMILES	StopGo reporter	RE007 growth inh	SARS PLP yeast	NS1 function inh	LASV entry inh	Cruzain inh noDet	Marburg entry inh	Cruzain inh Det
COc1ccc(CCNC(=O)CCn2c(=O)c3ccccc3n(Cc3cc(C)ccc3C)c2=O)cc1OC	-6%	nt	nt	nt	10%[46.1 µM]	-2%	-17%[46.1 µM]	-0.2%
O=C(NC1CCS(=O)(=O)C1)c1ccccc1C(=O)c1ccccc1 (stereo not given)	-10%	2%	4%	-3%	-15%	4%	0%	5.6%
COC(=O)CN(CCc1ccccc1)S(=O)(=O)c1ccc(OC)c(OC)c1	-15%	1%	4%	-4%	-30%	-3%	?	3.1%
Cc1ccccc1S(=O)(=O)NCc1cccnc1	33%[activator]	nt	3%	8%	-3%	-1%	8%	-1.5%
Cc1[nH]c(=O)[nH]c(=O)c1S(=O)(=O)Nc1ccc(F)cc1F	-7%	2%	1%	6%	nt	nt	nt	nt
COc1ccc(CC(=O)NCCc2csc(-c3cccc(C)c3)n2)cc1	-19%	nt	nt	nt	-20%[46.1 µM]	11%	nt	-4.5%
Cc1sc2nc(N)sc2c1C	-1%	-12%	-24%	-207%	-4%	-8%	0%[46.1 µM]	-0.4%
NC(=O)COC(=O)c1cccc(S(=O)(=O)N2CCN(c3ccc(F)cc3)CC2)c1	-24%	12%	0%	6%	-17%	nt	17%[46.1 µM]	nt
COc1ccccc1C(=O)NCCC(=O)NCc1cccs1	-14%	-10%	8%	nt	17%	nt	23%[46.1 µM]	nt
COc1ccc(OC)c(CNC(=O)C2CCN(S(=O)(=O)c3cn(C)cn3)CC2)c1	-15%	nt	nt	nt	6%[46.1 µM]	-13%	nt	-0.2%
COCCN(C(=O)c1ccc2ccccc2c1)c1c(N)n(Cc2ccccc2)c(=O)[nH]c1=O	-2%	-14%	0%	nt	0%	nt	21%[46.1 µM]	nt
O=S(=O)(c1ccc(C2=CSC3=NCCN23)cc1)N1CCOCC1	-9%	7%	13%	13%	19%	?	-1%	-2.3%
NC(=NCc1ccccc1)c1cccc([N+](=O)[O-])c1	-10%	19%	2%	8%	2%[46.1 µM]	nt	-22%[46.1 µM]	nt
CN(C)c1ccc(C(=S)N2CCCCC2)cc1Br	23%	0%	0%	-5%	?	nt	13%[46.1 µM]	nt
COC(=O)c1ccc(NC(=S)Nc2ccc3ccccc3c2)cc1	31%[activator]	-18%	-10%	-2%	-8%	?	-22%	2.5%
N#Cc1ccc(Oc2nc(C#N)cc(-c3ccccc3)n2)cc1	11µM*	-2%	19%	7%	-35%	-23%	-6%	14µM*
CCCCn1c(N)c(N(Cc2ccccc2)C(=O)COc2ccccc2F)c(=O)[nH]c1=O	-14%	8%	-2%	nt	13%	nt	0%	nt
O=C1OCC(CO)(CO)N=C1NNc1ccccc1Cl	nt	90%	-25%	-113%	-4%	-12%	18%	-2.6%
O=C(NCc1ccc2c(c1)OCO2)C1CCN(S(=O)(=O)c2cccc3nsnc23)CC1	-18%	-17%	-3%	1%	-2%	-15%	2%	2.7%
CS(=O)(=O)N(CC(=O)NCCSCc1c(F)cccc1Cl)c1cccc([N+](=O)[O-])c1	-4%	0%	1%	-7%	19%	nt	19%[46.1 µM]	nt
CN(Cc1cn(C)nc1-c1ccc(Oc2ccccc2)cc1)CC1COCCO1 (stereo not given)	-2%	10%	0%	-1%	nt	nt	nt	nt
CCC1=Nc2cc(C(=O)NCCCN3CCOCC3)ccc2Sc2ccccc21	-14%	2%	8%	-14%	-29%[46.1 µM]	nt	-16%[46.1 µM]	nt
Cc1ccc(C(C)C)c(OCc2nn(CC(=O)c3ccc(OC(F)F)cc3)c3[n+]2CCCCC3)c1	?	60%	0%	-2%	?	nt	?	nt
CCOC(=O)C(=O)Nc1nnc(SCc2ccc(F)cc2)s1	-24%	-11%	-47%	-49%	0%	0%	?	-3.5%
CON(c1nc(N(C)C)nc(N(C)C)n1)S(=O)(=O)c1ccccc1Cl	10%	1%	-5%	-6%	-3%	3%	-21%	-6.5%

Other entries:
SMILES	StopGo reporter	RE007 growth inh	SARS PLP yeast	NS1 function inh	LASV entry inh	Cruzain inh noDet	Marburg entry inh	Cruzain inh Det
CSc1ncccc1C(=O)Nc1cccc(C)n1	6%	-4%	-2%	1%	1%[46.1 µM]	nt	10%[46.1 µM]	nt
CCc1ccc(NC(=O)c2ccc3c(=O)n4nc(Nc5ccccc5C)sc4nc3c2)cc1	-19%	nt	nt	nt	19%[46.1 µM]	-19%	nt	-2.3%
Cc1cc(C)cc(OCC(=O)Nc2ccc(N3CCCC3)cc2)c1	nt	-5%	4%	17%	8%	4µM*	-12%	?
O=C(NCC1OCCc2ccccc21)C1COc2ccccc2O1 (stereo not given)	-5%	2%	-1%	nt	3%	nt	-7%[46.1 µM]	nt
COCC(=O)N1CCC(Oc2ccc(C(=O)N(C)Cc3nccs3)cc2)CC1	32%[activator]	-16%	1%	-2%	?	nt	7%	nt
COCCN1C(=O)C(O)=C(C(C)=O)C1c1ccc(OC)c(OC)c1 (stereo not given)	2%	-17%	14%	2%	-7%	-15%	4%	-6.6%
O=C(CCC(=O)NC1CCCCC1)NCc1ccc(F)cc1	-6%	6%	-6%	9%	nt	nt	nt	nt
Cc1cccc(C(=O)Nc2ccc(C(=O)OCc3cc(=O)n4c5c(sc4n3)CCCC5)cc2)c1	21%	nt	nt	nt	1%[46.1 µM]	-3%	nt	-0.6%
CC(=O)c1ccc(Oc2cc(-c3ccccc3)nc(-c3ccccc3)n2)cc1	-23%	13%	20%	-2%	-9%	-12%	-2%	-1.3%
Cc1ccc(C(=O)OCc2cc(=O)n3ccsc3n2)s1	57%[activator]	4%	-18%	nt	?	nt	-3%	nt
CC1Cc2ccccc2N1CC(=O)NC(=O)NCc1ccco1 (stereo not given)	-21%	11%	2%	11%	?	-13%	?	-1.3%
Cc1[nH]cnc1CSCc1ccc(Cl)cc1	-4%	-10%	-5%	?	1%	9%	9%	-1.8%
COc1ccc(CNC(=O)c2n[nH]c3ccccc23)cc1OC	0%	8%	2%	nt	-2%	nt	-4%[46.1 µM]	nt
CC(NC(=O)C(C)N1CCN(S(=O)(=O)c2ccccc2)CC1)c1ccccc1 (stereo not given)	3%	11%	-16%	nt	-2%	nt	25%	nt
CCC(C)(C)NC(=O)CN(C(=O)C(=O)Nc1ccc2c(c1)OCCO2)N1CCOCC1	-4%	22%	3%	-3%	-1%	nt	2%[46.1 µM]	nt
O=C(CN(Cc1ccco1)C(=O)c1cc(=O)[nH]c2ccccc12)Nc1ccccc1C(F)(F)F	5%	3%	2%	-7%	-13%	9%	-1%&-6%	1.9%
Cc1ccc(C(=O)c2cc([N+](=O)[O-])ccc2N2CCN(C)CC2)cc1	-22%	-8%	2%	0%	?	-3%	?	-3.5%
Cc1ccc2c(c1)C(c1ccncc1)=NNC(c1cccnc1)=N2	-3%	9%	-1%	2%	0%	nt	-5%[46.1 µM]	nt
N#C/C(=C\C=C\c1ccccc1)C(=O)NCc1ccco1	24%	8%	-1%	-2%	-30%	nt	?	nt
O=C(NCCc1ccccc1)C1CCCN1C(=O)Nc1cccc(Cl)c1 (stereo not given)	-7%	-16%	0%	16%	nt	nt	nt	nt
CCc1cccc(NC(=O)c2c(N3CCCC3=O)c3cc(C)ccc3n2C)c1	?	nt	nt	nt	17%[46.1 µM]	7%	nt	-12%
CC1(C)CNC(=O)c2sc(NC(=O)c3ccccc3Cl)nc2C1	19%	-2%	-1%	1%	10%[46.1 µM]	nt	?	nt
CCOc1ccc(OCCCCN(C)C)cc1	-24%	-3%	2%	-12%	2%	-1%	1%	4.3%
Cc1nc2ccccc2c(=O)n1-c1ccccc1C(F)(F)F	nt	10%	-2%	0%	-2%	10%	9%	4.9%
COc1ccc(NC(=O)Cn2cnc3sc(C)c(S(=O)(=O)N4CCOCC4)c3c2=O)cc1Cl	7%	11%	10%	-4%	-4%	nt	-9%[46.1 µM]	nt

Additional results.
SMILES	StopGo reporter	RE007 growth inh	SARS PLP yeast	NS1 function inh	LASV entry inh	Cruzain inh noDet	Marburg entry inh	Cruzain inh Det
CCOc1ccc(C(=O)Nc2ccc3oc(-c4cccnc4)nc3c2)cc1	-19%	nt	nt	nt	-13%[46.1 µM]	-3%	2%[46.1 µM]	-0.2%
CCOc1ccc(NS(=O)(=O)c2cc(NC(=O)c3ccc(C)cc3)ccc2Cl)cc1	11%	20%	-23%	-2%	?	-22%	?	-5.4%
O=C(C1CC(c2cccc(Br)c2)=NO1)N1CCc2ccccc2C1 (stereo not given)	25%	-2%	-5%	-18%	-2%	-2%	0%	2.7%
C=CCOc1ccccc1CNCCc1ccc(S(N)(=O)=O)cc1	-18%	-3%	3%	nt	-5%[46.1 µM]	nt	?	nt
CC1=CC2=NC(=O)CC(C)(C(=O)N(CC(=O)NC3CCCC3)c3ccccc3F)N2C=C1 (stereo not given)	-7%	-3%	0%	-5%	-2%	nt	-21%[46.1 µM]	nt
Cn1cc(CNC(=O)C2CCC(=O)N(Cc3ccc(Cl)cc3)C2)cn1 (stereo not given)	-16%	-10%	5%	-1%	nt	nt	nt	nt
O=C(CN1C(=O)/C(=C2\SC(=S)N(CCS(=O)(=O)O)C2=O)c2ccccc21)Nc1cccc(Br)c1	2%	3%	2%	2%	?	nt	?	nt
O=C(NCc1ccco1)C(c1ccccc1F)N(CC1CCCO1)C(=O)Cn1nnc2ccccc21 (stereo not given)	-4%	8%	3%	0%	1%	8%	-4%&56%	1.9%
CC(=O)N1CCCc2cc(S(=O)(=O)N3CCC(C(=O)NCc4ccccc4)CC3)ccc21	-20%	nt	nt	nt	?	5%	nt	-0.9%
COC1CCN(C(=O)C2CCC(=O)N(CCc3cccc(F)c3)C2)CC1 (stereo not given)	24%	10%	-1%	-10%	0%	nt	10%	nt
CC(=O)c1ccc(N(C(=O)Cc2c[nH]c3ccccc23)C(C(=O)NC2CCCCC2)c2cccs2)cc1 (stereo not given)	40%[activator]	1%	4%	1%	?	-1%	-19%	-0.1%
Cc1ccccc1N(CC(=O)NC1CCCCC1)C(=O)CCC(=O)Nc1nccs1	3%	-4%	3%	1%	-9%	nt	?	nt
COc1ccc(/C=C2\C(=O)NCC(=O)N2C)cc1	-20%	64%	0%	3%	nt	nt	nt	nt

Hits appear at their usual frequency, and some 4.5% of all compounds hit somewhere here.
